Vaccinia Venus: inhibitors of vaccinia virus (Venus reporter). Vaccinia virus Venus reporter expression, fluorescence. Potency, µM (doses to about 36.5 µM), without a hit: top-dose activity change, negative = inhibition, most hits filed as inhibitors. hit rate 0.46% among 330,000; active means well fitted inhibition curve with a large enough effect; inconclusive means small, poorly fitted or top-dose-only effect; inactive means no such curve, though single readings can be large or run the other way; tested in A549 cells; also: nearly all actives have a fitted effect of over 30% in size; inactives centre near -10
VACV mCherry inh: inhibitors of vaccinia virus infection (mCherry reporter signal); Vaccinia virus mCherry reporter infection, fluorescence; about a quarter of the inactives have no number; Potency, µM (top dose mostly 36.5 µM), inactives show at the highest dose activity change, negative = inhibition, actives largely listed as inhibitors; hit rate 0.63% among 310,000; AID 720579; active = well fitted inhibition curve with a large enough effect; inconclusive = small, poorly fitted or top-dose-only effect; inactive = no such curve, though single readings can be large or run the other way; tested in A549 cells; also: nearly all actives have a fitted effect of over 35% in size; inactives centre near -10
The depositor's hits bear a star; i = inactive; ? = inconclusive; · = not tested or not shown; & = joins results of further samples; [ ] = another dose, or the depositor's remark. % is scaled to controls: 0 for no effect and ±100 for the full control effect; potency is read from the fitted curve at half-maximal effect.

SMILES	Vaccinia Venus	VACV mCherry inh
O=c1c(OC2OC(CO)C(O)C(O)C2OC2OC(CO)C(O)C(O)C2O)c(-c2ccc(O)cc2)oc2cc(O)cc(O)c12 (stereo not given)	-3%	0%
CCOC(=O)c1[nH]c2ccccc2c1NC(=O)C1CCCCC1	-5%	i
Cc1ccc(CC(=O)Nc2cccc(S(=O)(=O)N3CCOCC3)c2)cc1	-6%	-16%
CCCN(c1ccc(OCC)cc1)S(=O)(=O)c1ccc2c(c1)CCN2C(=O)CCC(=O)O	-5%	-11%
CCC(=O)c1ccc(OCC(=O)OCC(=O)N(C)CC(=O)Nc2ccc(F)cc2)cc1	-1%	i
CC(NC(=O)c1cc(F)c(F)cc1Cl)c1ccncc1 (stereo not given)	-7%	-23%
CCOC(=O)CC(=O)CSc1nc2c(cc1C#N)CCC2	-15%	-22%
O=C(OCc1csc(-c2ccccc2)n1)c1cccs1	-14%	-15%
Cc1nnc(-n2cnc3ccccc32)c2ccccc12	-16%	-8%
CC(=O)c1ccc(NC(=S)NCCc2cccc(Cl)c2)cc1	-14%	i
O=S(=O)(Nc1nc2n(n1)C(c1ccc(F)cc1)C=C(c1ccccc1)N2)c1ccccc1 (stereo not given)	-21%	-18%
O=C(CCCN1C(=O)/C(=C\c2cccc(Br)c2)SC1=S)Nc1ccc(C(=O)O)cc1	-2%	i
COc1ccccc1-c1ccc(SCC(=O)Nc2cc(C)on2)nn1	-16%	i
COC(=O)c1cc2ccc(OC)c(OC)c2c(=O)s1	-3%	·
Nc1ncc(Br)cc1S(=O)(=O)Nc1ccccc1F	-17%	-14%
O=C1CC(c2nc3ccccc3n2CCC2CCCCC2)CN1c1ccccc1Cl (stereo not given)	-1%	-16%
CC(=O)OCC(C)n1c(=O)c2ccccc2n1C(C)=O (stereo not given)	1%	-14%
COc1cc(CC(CC(=O)O)CC(C)OCc2ccccc2)cc(OC)c1 (stereo not given)	-10%	-13%
COc1ccc(NC(=O)CC2C(=O)N(c3ccccc3)C(=O)N2CCc2sccc2C)cc1 (stereo not given)	-6%	-8%
COc1ccc(Br)cc1CNC(=O)c1cc(=O)[nH]c2ccc(S(=O)(=O)N3CCCCC3C)cc12 (stereo not given)	1%	i
COCCCNCCCCOc1ccc(Br)cc1Cl	-16%	-3%
C=C(C)CSC1=C(C#N)C(c2ccccc2Cl)CC(=O)N1 (stereo not given)	-12%	-25%
Cc1cc(C)n(-c2ccc(C(=O)OCc3nnc(-c4ccccc4)o3)cc2)n1	-16%	·
C=CCN(Cc1nc(-c2ccccc2)no1)C(=O)c1ccco1	6%	-7%
Cc1nc(CNS(=O)(=O)c2ccc(F)cc2)cs1	-2%	-6%

Continued, starting with the last seven of the part before.
SMILES	Vaccinia Venus	VACV mCherry inh
COc1ccc(NC(=O)CC2C(=O)N(c3ccccc3)C(=O)N2CCc2sccc2C)cc1 (stereo not given)	-6%	-8%
COc1ccc(Br)cc1CNC(=O)c1cc(=O)[nH]c2ccc(S(=O)(=O)N3CCCCC3C)cc12 (stereo not given)	1%	i
COCCCNCCCCOc1ccc(Br)cc1Cl	-16%	-3%
C=C(C)CSC1=C(C#N)C(c2ccccc2Cl)CC(=O)N1 (stereo not given)	-12%	-25%
Cc1cc(C)n(-c2ccc(C(=O)OCc3nnc(-c4ccccc4)o3)cc2)n1	-16%	·
C=CCN(Cc1nc(-c2ccccc2)no1)C(=O)c1ccco1	6%	-7%
Cc1nc(CNS(=O)(=O)c2ccc(F)cc2)cs1	-2%	-6%
CCC1CCCCN1Cc1ccc(CNC(=O)CCc2nnc3ccc(N4CCCCC4)nn23)o1 (stereo not given)	-12%	-14%
NS(=O)(=O)c1ccc(CCNC(=O)c2ccc(Cl)c(S(=O)(=O)NCc3ccco3)c2)cc1	16%	-11%
CCOc1cc(/C=N/Nc2ccc(S(=O)(=O)Nc3ccccc3C(=O)O)cc2[N+](=O)[O-])cc(Cl)c1O	-8%	0%
CC(=O)Nc1cc(C(=O)NCc2ccc(F)cc2)ccc1Sc1ccc(F)cc1	-11%	-13%
Oc1ccccc1CNCC12CC3CC(CC(C3)C1)C2	-27%	-25%
O=C(NCc1cccnc1)c1ccccc1-c1ccccc1	-7%	-3%
CCOc1ccc(Cn2nnc(C(=O)NCc3ccccc3)c2N)cc1	-3%	-4%
NC(=O)NC(=O)CSc1cccc(C(F)(F)F)c1	-19%	-25%
CC(C)n1cc(CN2CCCC(CNS(=O)(=O)c3cccc4cccnc34)C2)cn1 (stereo not given)	-1%	-26%
O=C(NCc1ccc(F)cc1)Nc1cccc([N+](=O)[O-])c1	-3%	-9%
COC(=O)c1ccc(N2CCOCC2)c(NC(=O)c2ccco2)c1	-6%	-14%
COc1ccc(-c2cc(NC=O)c3ncc(-c4cccc(C(=O)NCCN(C)C)c4)n3c2)cn1	-11%	i
O=c1oc(CCCO)cc2ccccc12	-11%	1%
Cc1nc2ccc(C(=O)N3c4ccccc4N=C(c4ccc(C(F)(F)F)cc4)C3C(=O)NC(C)(C)C)cc2[nH]1 (stereo not given)	-11%	-11%
COc1ccc(C)cc1NC1=NC(C)(C)CS1	-6%	-19%
O=C1N(Cc2cccnc2)C[C@@H]2C[C@@H](c3cccc(C(F)(F)F)c3)N3CCC[C@@]123	-6%	-7%
CCOC(=O)c1csc(NC(=O)CSc2nnnn2-c2ccc(OC)c(OC)c2)n1	-2%	-7%
Cc1nn(CC(=O)NCCc2ccccc2Cl)c(=O)c2nn(-c3ccccc3)c(C)c12	-19%	-19%
Cc1cccc(NC(=O)C2CC(=O)N(Cc3ccccc3)C2)n1 (stereo not given)	-11%	i
CSC1=N/C(=C\c2ccc(Cl)cc2)C(=O)N1N(C)C	1%	i
CCCCC(=O)N(C)c1c(C)nc2ccc(C(=O)N(CC)CCN(C)C)cn12	-5%	i
C[C@H](CO)N1C[C@H](C)[C@@H](CN(C)S(=O)(=O)c2ccccc2)Oc2c(NC(=O)CCC(F)(F)F)cccc2C1=O	-15%	i
c1ccc(C2CC(c3ccccc3)n3c(nc4ccccc43)N2)cc1 (stereo not given)	-11%	-4%
CCCCN(CC)CCCNC(=O)c1nn(C)c2c1CS(=O)(=O)c1ccccc1-2	-8%	-6%
CCOC(=O)c1c(C)c(C)n2c1NC(=O)C2	51%[activator]	83%[activator]
Following part.
SMILES	Vaccinia Venus	VACV mCherry inh
Cc1ccc(NC(=O)C(Nc2cccc(C)c2)c2ccccc2)cc1 (stereo not given)	-18%	-9%
COc1ccc(-c2ccc(-c3noc(-c4cccc(OC)c4)n3)c(OC)n2)cc1	-2%	i
Cc1cc(Cl)ccc1OC(C)C(=O)Nc1cccc(S(=O)(=O)N2CCOCC2)c1 (stereo not given)	-25%	-14%
CCn1c(SCc2cccc(F)c2)nnc1-c1cccnc1	7%	-14%
Fc1ccc(-c2ccc3nccn3c2)cc1Cl	-4%	8%
COc1ccc(-c2csc3ncnc(N4CCN(c5cccc(C)c5C)CC4)c23)cc1	-13%	-15%
COc1cc(OC)c2c(C)cc(=O)oc2c1C(CCN1CCOCC1)c1ccc(N(C)C)cc1 (stereo not given)	?	?
CC(Oc1ccc(F)cc1)C(=O)Nc1cc(Cl)ccc1-n1cncn1 (stereo not given)	-7%	-10%
Cc1cccc(-n2ncc3c(=O)[nH]c(SCC(=O)Nc4cc(C)on4)nc32)c1	14%	3%
O=c1[nH]cnc2c([N+](=O)[O-])cccc12	-14%	-25%
Cc1cc(F)ccc1S(=O)(=O)N1CCCOC1CNC(=O)C(=O)NCc1ccncc1 (stereo not given)	-11%	-18%
CN(C(=O)c1cccc(NC(=O)Cc2ccc(NC(=O)C3CCN(S(=O)(=O)c4cccc([N+](=O)[O-])c4)CC3)cc2)c1)C1CCC1	0%	?
CCc1ccccc1NC(=O)CCC(=O)N1CCN(C(C)=O)CC1	-14%	i
CCOC(=O)CSc1cc(C)c(C#N)c2nc3ccccc3n12	-2%	i
COc1ccc(-c2c[n+](CC(=O)N3c4ccccc4Sc4ccccc43)c3n2CCC3)cc1	-12%	-14%
CC(=O)Nc1cc(C(=O)N2CCCC(C)C2)cc2ncn(CCc3ccccn3)c12 (stereo not given)	-16%	i
CCc1ccc(OCC(O)CN2CCN(c3ccccc3)CC2)cc1 (stereo not given)	10%&0%	?
CN(CC(=O)NCc1ccccc1)S(=O)(=O)c1cnc[nH]1	2%	-16%
COc1ccc(N2CCN(C(=O)c3c(-c4ccccc4)noc3C)CC2)cc1	-14%	14%
c1ccc2sc(C3CCN(Cc4nnnn4Cc4ccc5c(c4)OCO5)CC3)nc2c1	?	?
Cc1nn(C(C)C(=O)NCC2CCCO2)c(=O)c2cc3occc3n12 (stereo not given)	-8%	i
CC12CCC3c4ccc(O)c([N+](=O)[O-])c4CCC3C1CCC2=O (stereo not given)	-18%	i
C/C=C(\C)c1nnc(NC(=O)OCC)s1	-13%	i
CC(C)CC(=O)Nc1ccc(Cl)c(-c2nc3ccccc3[nH]2)c1	-17%	22%
CC(C)(C)C(=O)Nc1ncc(C(F)(F)F)cc1Cl	-13%	-10%

Single records, from the list above. Order of screens: Vaccinia Venus	VACV mCherry inh
CN(CC(=O)NCc1ccccc1)S(=O)(=O)c1cnc[nH]1 is listed as 2%	-16%
O=C(NCc1cccnc1)c1ccccc1-c1ccccc1 is listed as -7%	-3%
COC(=O)c1ccc(N2CCOCC2)c(NC(=O)c2ccco2)c1 is listed as -6%	-14%

Carrying on.
SMILES	Vaccinia Venus	VACV mCherry inh
O=[N+]([O-])c1ccc(C2CN=C(Nc3ccccc3)S2)cc1 (stereo not given)	-15%	i
O=C(CN1C(=O)c2ccccc2S1(=O)=O)Nc1ccc(S(=O)(=O)Nc2ncccn2)cc1	-6%	-14%
Cc1cc(NC(=O)CCC(=O)N(Cc2ccco2)C2(C(=O)NC3CCCCC3)CCCCC2)no1	7%	-20%
Cc1ccc(S(C)(=O)=NS(=O)(=O)c2cccc3nsnc23)cc1 (stereo not given)	-9%	-15%
COc1ccc(-c2nnc(NC(=O)c3ccco3)s2)cc1	-12%	-2%
Cc1ccc(NC(=O)c2c(C)nc3sc(C(=O)Nc4ccc(F)cc4)c(N)c3c2-c2ccc(Cl)cc2)c(C)c1	1%	12%
CC(C)(C)c1ccc(-c2cn(-c3ccc(Br)cc3)c3[n+]2CCCS3)cc1	-6%	i
Cc1cc(C)c(S(=O)(=O)Nc2ccc(-c3ccc(N4CCCCCC4)nn3)cc2)cc1C	-12%	-12%
CC(C)(C)c1ccc(C(=O)N2CCN(CCNC(=O)C(=O)NCc3ccc(Cl)cc3)CC2)cc1	?	-17%
CC(=O)c1cc(-c2ccccc2)n(CCC(=O)NC2CCCCCCC2)c1C	?	i
COc1ccc(-c2csc3ncnc(Nc4cc(OC)cc(OC)c4)c23)cc1	-10%	-26%
O=C(Nc1cc(Cl)ccc1-n1cncn1)c1ccc(Br)o1	-12%	-16%
O=C(c1cnn2c(-c3ccccc3)cc(-c3ccccc3)nc12)N1CCN(Cc2ccccc2)CC1	-8%	-10%
CCOCc1ccccc1Nc1ncnc2onc(-c3ccc(Cl)cc3)c12	10%	-4%
CN(C)CCNC(=O)C(=O)NCC1OCCN1S(=O)(=O)c1ccc2c(c1)OCCO2 (stereo not given)	-12%	i
CN(C)CCNC(=O)COc1cccc2c1OC(C)(C)C2	-12%	0%
COc1ccc(CC(N)C(=O)NC2C(O)[C@H](n3cnc4c(N(C)C)ncnc43)O[C@@H]2CO)cc1 (stereo not given in full)	?	?
CCOc1ccc(CC(=O)OCn2nnc3ccccc3c2=O)cc1	-21%	-1%
CCn1cc(/C=N\NC(=O)c2csc3ccccc23)c(C)n1	2%	2%
CN(C)c1nc(OCCNC(=O)Nc2ccc(Cl)cc2)nc(N(C)C)n1	-8%	-11%
CS(=O)(=O)NNC(=O)c1sccc1OCc1ncc(C(F)(F)F)cc1Cl	-11%[7.34 µM]	-10%[7.34 µM]
c1csc(-n2nc3ccccc3n2)c1	0%	·
CCOC(=O)C1CCC(CN(Cc2ccc(Cl)cc2)S(=O)(=O)c2ccc(F)c(C(=O)Nc3cccc(F)c3)c2)CC1 (stereo not given)	2%	-9%
Cc1cc(N=Cc2c(O)n(-c3cccc(C(F)(F)F)c3)c(=O)c3ccccc23)no1	-13%	-17%
COc1cc(OC)c(N(C)C(=O)c2c(C)oc3ncnc(N4CCCCC4)c23)cc1Cl	-1%	-13%
Clc1cccc(-c2nc(NCCN3CCOCC3)c3ccccc3n2)c1	-15%	i
CCCCCCC(=O)Nc1nc(C)c(-c2csc(Nc3cc(Cl)ccc3C)n2)s1	-19%	i
COc1ccc(OC)c(NC(=O)COc2coc(CN3CCCc4ccccc43)cc2=O)c1	-19%	-3%
O=C(O)c1ccccc1C(=O)OCCCc1ccncc1	-5%	i

Screening data: PubChem, National Center for Advancing Translational Sciences (NCATS)

Random draw from the library. About 0.82% of those tested had a hit in this group.
